# Vaccinia Venus: qHTS for Stage-Specific Inhibitors of Vaccinia Orthopoxvirus: Venus Reporter Primary qHTS | Vaccinia virus Venus reporter expression, fluorescence | 0.46% of 330,000 active | Potency, µM (top dose mostly 36.5 µM), for inactives: top-dose activity change, negative = inhibition, most hits filed as inhibitors; active means well fitted inhibition curve with a large enough effect; inconclusive means small, poorly fitted or top-dose-only effect; inactive means no such curve, though single readings can be large or run the other way; tested in A549 cells; also: nearly all actives have a fitted effect of over 30% in size; inactives centre near -10
# Vaccinia mCherry: qHTS for Stage-Specific Inhibitors of Vaccinia Orthopoxvirus: mCherry Reporter Primary qHTS. 0.63% of 310,000 active. Potency, µM (doses to about 36.5 µM), without a hit: at the highest dose activity change, negative = inhibition, usual class: inhibitors. Vaccinia virus mCherry reporter infection, fluorescence; about a quarter of the inactives have no number; active = well fitted inhibition curve with a large enough effect; inconclusive = small, poorly fitted or top-dose-only effect; inactive = no such curve, though single readings can be large or run the other way; tested in A549 cells; also: nearly all actives have a fitted effect of over 35% in size; inactives centre near -10
# * hit, by the source's call; i = inactive; ? = inconclusive; / = no result given; [ ] = dose if it differs, or a comment. % is scaled to controls: 0 for no effect and ±100 for the full control effect; potency is read from the fitted curve at half-maximal effect.
SMILES,Vaccinia Venus,Vaccinia mCherry
CC(=O)CCc1ccc(OCC(O)CNCCOc2ccc(C)cc2)cc1 (configuration not stated),1%,0%
Cc1n[nH]c(=O)c2c(NC(=O)CSc3nn(-c4ccccc4)c(=S)s3)oc(C)c12,-14%,-7%
COc1ccc(C2CC(=O)C=C(NC3CCCC3)C2)cc1 (configuration not stated),3%,0%
CC(C)CC(=O)Nc1ccc(C(=O)CN2CCN(c3ccc(O)cc3)CC2)cc1,-15%,-10%
CCC1=NN(C(=O)C(=O)Nc2ccc(OC)cc2)C(O)(C(F)(F)F)C1 (configuration not stated),-2%,-4%
CCC(C)(C)NC(=O)C(c1ccccc1Cl)N(Cc1cccnc1)C(=O)CCC(=O)Nc1cc(C)on1 (configuration not stated),-13%,i
Cc1ccc(S(=O)(=O)N(Cc2cc3ccc(C)cc3[nH]c2=O)c2ccccc2)cc1,1%,-6%
CCN(CC)CCOc1ccc(-c2c(C)c3c(ccc4ccccc43)oc2=O)cc1,-2%,i
CSc1ccccc1OCc1cc(C(=O)N2CCc3sccc3C2)no1,0%[7.34 µM],-1%[7.34 µM]
COC(=O)c1ccccc1C(=O)c1ccc2c(c1)NC(=O)CO2,-9%,i
CCCOc1ccc(-c2nonc2NC(=O)c2oc3ccc(C)cc3c2C)cc1OCCC,-16%,-13%
CC(C)(C)c1cc(/C=N/NC(=O)Cc2nc3ccccc3[nH]2)cc(C(C)(C)C)c1O,-4%,/
Cc1cc(N2CCN(C)CC2)nc2ccc(NC(=S)NCc3cccs3)cc12,-16%,?
COc1ccc(S(=O)(=O)N(Cc2nc(-c3ccc(Cl)cc3)no2)C2CCCCC2)cc1,-14%,-10%
COC(=O)C(CC(C)C)Oc1ccc2c(C)cc(=O)oc2c1 (configuration not stated),-4%,-9%
CC(C)(C)C(=O)CSc1ncccn1,-6%,-12%
Cc1ccc(NC(=O)c2ccc(NS(=O)(=O)c3ccc4[nH]c(=O)[nH]c4c3)cc2)nc1,-5%,-6%
CC(C)[C@H]1C(=O)O[C@H](C(C)C)C(=O)N(C)[C@@H](C(C)C)C(=O)O[C@H](C(C)C)C(=O)N(C)[C@@H](C(C)C)C(=O)O[C@H](C(C)C)C(=O)N1C,?,?
CCc1nc2c(OCC(=O)C(C)(C)C)cccn2c1N(C)C(=O)CC(C)C,5%,i
CC(=O)c1ccc(N2Cc3ccccc3C2=NC(=O)c2cccs2)cc1,-15%,-1%
Oc1c(Cl)cc(Cl)cc1/C=N/c1nccs1,-12%,/
COc1cccc(OCC(=O)O)c1,0%,8%
Cc1ccc(S(=O)(=O)N2CCN(C(=O)C(C)Cn3cncn3)CC2)cc1C (configuration not stated),-1%,i
COc1cccc(C(=O)N2c3cc(C)ccc3OCC2C(C)(C)C)c1 (configuration not stated),-13%,-6%
Cc1cc2c(NCc3ccccc3)ncnc2s1,-17%,-12%
# Next section.
SMILES,Vaccinia Venus,Vaccinia mCherry
COc1ccc(OC)c(NS(=O)(=O)c2ccc(N3CCCCS3(=O)=O)cc2)c1,-16%,-7%
Cn1cnc2cc(NC(=O)COc3ccccc3)ccc21,-10%,-21%
COc1ccc(NC(=O)C2CCCN(C(=O)Nc3ccc(F)cc3)C2)cc1 (configuration not stated),-15%,i
COc1cccc(-c2sc3ccc(OC)cc3c2C#CCCO)c1,?,-28%
COc1cccc(C2=CC(=O)CC(C)(C)C2)n1,-19%,-16%
O=C(NC1CCCc2ccccc21)C1CCN(S(=O)(=O)c2cccc3nsnc23)CC1 (configuration not stated),6%,-11%
Nc1ccccc1C#Cc1ccc([N+](=O)[O-])cc1,-9%,?
O=C(Oc1ccc([N+](=O)[O-])cc1)c1ccc2ccccc2n1,-6%,-18%
Cc1cc2ncn(S(=O)(=O)N3CCCCC3)c2cc1C,-23%,i
Nc1nc(OCC2CCCCC2)c2[nH]cnc2n1,?,?
O=C1CCC(C(=O)N(Cc2ccco2)C2(C(=O)NC3CCCC3)CCCCC2)N1 (configuration not stated),-8%,/
Cc1cc(F)ccc1NC(=O)Cn1cc(S(=O)(=O)NC(C)C)c(S(=O)(=O)NC(C)C)c1,-4%,i
CCCCn1c(N)c(N(CCOC)C(=O)c2ccc(Br)o2)c(=O)[nH]c1=O,-10%,-8%
Cc1ccc(C(C)C)c(OCC(=O)c2c(O)c3ccccc3oc2=O)c1,-28%,/
Cc1nc(SCC(=O)NCc2ccc(F)cc2)c2c(=O)n(C)c(=O)n(C)c2n1,11%,-2%
Cc1nn(-c2ccccc2)c2c1C(O)n1c(nc3ccccc31)S2 (configuration not stated),-12%,i
CC(C(=O)Nc1ccccc1Cl)N(c1ccccc1)S(C)(=O)=O (configuration not stated),-1%,2%
COc1ccccc1CNC(=O)c1cnc(N2CCCC2)nc1C,-11%,1%
Cc1cc(C)n2nc(SCCOc3ccccc3F)nc2n1,-13%,i
O=C(N/N=C/c1ccc(F)cc1)c1c(O)c2ccccc2[nH]c1=O,1%,-10%
CCc1ccc2c(c1)C1(NN=C(c3ccccc3)S1)C(=O)N2 (configuration not stated),?,14µM*
Cc1occc1C(=O)OCC(=O)Nc1ccc(F)cc1,-15%,/
COc1cc2c(cc1OC)C(c1cccc(F)c1)CC(=O)N2 (configuration not stated),-15%,i
COc1cc(NC(=O)c2ccc(Br)o2)ccc1NC(=O)c1ccccc1Cl,?,-7%
Cc1ccc(NC(=O)CCc2c(C)nc3c(-c4ccc(F)cc4)c(C)nn3c2C)cc1F,-10%,-4%
# The listing continues:
SMILES,Vaccinia Venus,Vaccinia mCherry
CCOC(=O)CSC1=C(C#N)C(=O)NC2(CCCCC2)S1,-13%,/
CCOC(=O)c1cc(-c2sc(NC(=O)c3ccccc3)nc2C)n(-c2ccc(Br)cc2)n1,?,-24%
O=C(NCc1cccc(Cl)c1)c1ccc2nc[nH]c2c1,-14%,-14%
Oc1ccc(C(=S)N2CCN(c3cccc(Cl)c3)CC2)cc1,-29%,?
Cc1cc(C)c(S(C)(=O)=O)c(=O)[nH]1,-10%,i
CC(=O)Nc1cc(C(=O)N(C)Cc2ccco2)ccc1Sc1ccc(Cl)cc1,-11%,i
CC(C)OCCCn1c(=O)c2ccccc2n2c(-c3ccc(F)c(F)c3)nnc12,3%,i
Cc1nnc(SCC(=O)NC23CC4CC(CC(C4)C2)C3)s1,-14%,i
Cc1cccc(OCCCC(=O)Nc2nnc(C3CCCO3)s2)c1C (configuration not stated),-19%,-19%
CC(C)(C)N(CC#CCC(O)(c1ccccc1)C1CCCC1)CCO (configuration not stated),-5%,-14%
COc1ccc(C2/C=C\CN(C(=O)NC34CC5CC(CC(C5)C3)C4)CC(=O)N2Cc2ccc(F)cc2)cc1 (configuration not stated),?,i
Cc1ccc(C(=O)NC2(O)C(=O)c3ccccc3C2=O)cc1C,-5%[7.34 µM],0%[7.34 µM]
C/C(CCc1ccc2c(c1)OCO2)=N\N=C1\NC(=O)CC(C(=O)Nc2ccccc2)S1 (configuration not stated),-9%,-17%
CC(C)CNc1c(N)n(CC(C)C)c(=O)[nH]c1=O,-19%,-6%
COc1ccc(CNCCc2ccc(Cl)cc2)cc1OCc1ccccc1,-12%,-28%
CCCCn1c(N)c(N(CC(C)C)C(=O)C2CC(=O)N(CCc3ccccc3)C2)c(=O)[nH]c1=O (configuration not stated),-5%,-9%
NNC(=O)c1ccc(CSc2nc3ccccc3s2)cc1,-15%,-20%
CN(C)S(=O)(=O)c1ccc(N2CCCC2)c(C(=O)OCC(=O)NC2(C#N)CCCCC2)c1,-9%,-6%
O=C1c2ccccc2C(c2nnnn2Cc2ccccc2)N1Cc1ccc(F)cc1 (configuration not stated),3%,-8%
CCn1c(COc2ccc(C)cc2)nnc1SCC(=O)NNC(=O)c1ccc(OC)cc1,-19%,-13%
NS(=O)(=O)c1ccc(CCNC(=O)CN2CCC(Cc3ccccc3)CC2)cc1,-17%,-7%
O/N=C/c1ccc(-c2ccccc2OC(F)(F)F)o1,-28%,-15%
Cc1cc(C)c(C)c(C(=O)CSc2nnc(-c3ccc4[nH]c(C)c(C)c4c3)o2)c1C,-6%,/
O=C(C1CCCN1C(=O)c1cccs1)N1CCc2ccccc21 (configuration not stated),-2%,-7%
CCCC1(c2ccccc2)NC(=O)N(CC(=O)NCC2COc3ccccc3O2)C1=O (configuration not stated),-13%,-21%
# Next part.
SMILES,Vaccinia Venus,Vaccinia mCherry
CCOC(=O)c1cn(Cc2ccccc2)c2cc(C)nn2c1=O,-14%,-10%
Cc1cc2ncn(C3CC(O)C(CO)O3)c2cc1C (configuration not stated),-6%,-2%
COc1ccc(-c2nn(CCC(=O)O)cc2/C=C2\SC(N)=NC2=O)cc1OC,-1%,-10%
O=C(Cn1nc(C(F)(F)F)c2c1CCCCC2)N1CCOCC1,-5%,/
CC1CCCCN1CC(=O)Nc1ccc2c(c1)OC(F)(F)O2 (configuration not stated),-25%,i
CCN(CC)C(=O)c1ccc(NC(=O)Nc2ccccc2F)cc1,-9%,-5%
CC(=O)N1c2ccc(S(=O)(=O)N3CCCC3)cc2CC1C(=O)NCc1ccc(OC(C)C)cc1 (configuration not stated),-6%,-11%
COc1cc(C(=O)Nc2nnc(Cc3ccccc3)s2)cc(OC)c1OC,-10%,i
CC1(C(=O)Nc2ccc3[nH]ncc3c2)CCN1C(=O)Cc1ccc(-c2ccccc2)cc1 (configuration not stated),-24%,-21%
O=C(Nc1cccc(S(=O)(=O)N2CCCC2)c1)[C@@H]1O[C@H](CO)[C@H](O)[C@H](O)[C@H]1O,1%,-4%
Cc1cc(OCC(=O)N2CCC(C(=O)O)CC2)c2c3c(c(=O)oc2c1)CCCC3,5%,2%
CC1(C)CC(=O)C2=C(C1)NC(=O)CC2c1cc(F)ccc1F (configuration not stated),-12%,/
N#Cc1ccc(Oc2ccc(S(=O)(=O)N3CCCC3)cn2)cc1,-10%,?
O=C(CCNc1ccc(Cl)cc1)c1cccs1,-26%,-3%
CCn1c(=O)cc(OCC(=O)N2CCN(c3cccc(Cl)c3)CC2)c2ccccc21,-7%,-19%
CC1CC(=O)Nc2ccccc2N1S(=O)(=O)c1ccc(C(F)(F)F)cc1 (configuration not stated),-7%,-19%
CC1(C(=O)NS(C)(=O)=O)CCN1C(=O)Cc1ccc(-c2ccccc2)cc1 (configuration not stated),10%,8%
Cc1cccc(Cn2cc(C(=O)c3ccccc3)c(=O)c3cc4c(cc32)OCO4)c1,-6%,-7%
Cc1ccc(CNC(=O)CN2C(=O)NC(C)(c3ccccc3Cl)C2=O)cc1 (configuration not stated),-1%,-7%
Cc1[nH]n(-c2ccc(F)cc2)c(=O)c1C=Nc1ccc(S(=O)(=O)N(C)C)cc1,-2%,-10%
CC1NC(=O)c2cc3ccccc3cc2-n2c1nc1cc(Cl)ccc1c2=O (configuration not stated),?,-23%
COC(=O)Cc1cnc(NC(=O)C2C3CCC(C3)C2C(=O)O)s1 (configuration not stated),-11%,-10%
CCCCC(=O)O,-1%,i
Cc1csc(SCC(=O)Nc2cc(F)ccc2C)n1,-16%,-11%
O=C(NCCc1ccccc1)c1ccc(NS(=O)(=O)c2ccc3[nH]c(=O)[nH]c3c2)cc1,-7%,-11%

# The final two entries of the part above lead into the next:
SMILES,Vaccinia Venus,Vaccinia mCherry
Cc1csc(SCC(=O)Nc2cc(F)ccc2C)n1,-16%,-11%
O=C(NCCc1ccccc1)c1ccc(NS(=O)(=O)c2ccc3[nH]c(=O)[nH]c3c2)cc1,-7%,-11%
O=C(c1cccc(F)c1)N1CCN(c2ccc([N+](=O)[O-])c(N3CCCCC3)c2)CC1,-17%,-27%
CCCNC(=O)C1(C)CCN(C(=O)Cc2ccc(OC)c(OC)c2)C1 (configuration not stated),2%,24%
CCOC(=O)C1(Cc2ccccc2)NC(c2ccccc2F)C2C(=O)N(CC)C(=O)C21 (configuration not stated),-13%,-24%
COc1cccc(NC(=O)c2ccc3nc(CCc4ccccc4)oc3c2)c1,-10%,-10%
COc1cc(OC)cc(C(=O)Nc2ccc3c(c2)n(C)c(=O)c(=O)n3C)c1,-5%,-13%
COc1ccc(CNC(=O)[C@H](Cc2ccccc2)NC(=O)CC[C@H]2O[C@@H](n3ccc(=O)[nH]c3=O)[C@H](O)[C@@H]2O)cc1,2%,7%
COc1ccc(-n2c(=O)cc(N3CCN(c4ccccc4)CC3)[nH]c2=O)cc1,-7%,-9%
O=C(CSCc1c(F)cccc1Cl)NCc1cccnc1,-12%,-3%

# Ordered by heavy-atom count (ascending): some entries from above
SMILES,Vaccinia Venus,Vaccinia mCherry
CCCCC(=O)O,-1%,i
Cc1csc(SCC(=O)Nc2cc(F)ccc2C)n1,-16%,-11%
O=C(CSCc1c(F)cccc1Cl)NCc1cccnc1,-12%,-3%
COC(=O)Cc1cnc(NC(=O)C2C3CCC(C3)C2C(=O)O)s1 (configuration not stated),-11%,-10%
CCCNC(=O)C1(C)CCN(C(=O)Cc2ccc(OC)c(OC)c2)C1 (configuration not stated),2%,24%
Cc1ccc(CNC(=O)CN2C(=O)NC(C)(c3ccccc3Cl)C2=O)cc1 (configuration not stated),-1%,-7%
Cc1[nH]n(-c2ccc(F)cc2)c(=O)c1C=Nc1ccc(S(=O)(=O)N(C)C)cc1,-2%,-10%
Cc1cccc(Cn2cc(C(=O)c3ccccc3)c(=O)c3cc4c(cc32)OCO4)c1,-6%,-7%
CCOC(=O)C1(Cc2ccccc2)NC(c2ccccc2F)C2C(=O)N(CC)C(=O)C21 (configuration not stated),-13%,-24%
COc1ccc(CNC(=O)[C@H](Cc2ccccc2)NC(=O)CC[C@H]2O[C@@H](n3ccc(=O)[nH]c3=O)[C@H](O)[C@@H]2O)cc1,2%,7%

# Screens (PubChem BioAssay)

# No enrichment for hits. About 0.82% of those tested had a hit in this group.
